Polio RdRp inh – poliovirus RNA polymerase inhibition | hit rate 0.66% among 150,000 | AID 588519 | % elongation, % (compound at 16.7 µg/mL) | P03300 | poliovirus polymerase elongation, fluorescence polarization; stronger effect = lower value; in the data active = % elongation below about 90%; note: some results filed as inactive read as strong as hits
Target sequence (P03300 1749-2209 limits assumed): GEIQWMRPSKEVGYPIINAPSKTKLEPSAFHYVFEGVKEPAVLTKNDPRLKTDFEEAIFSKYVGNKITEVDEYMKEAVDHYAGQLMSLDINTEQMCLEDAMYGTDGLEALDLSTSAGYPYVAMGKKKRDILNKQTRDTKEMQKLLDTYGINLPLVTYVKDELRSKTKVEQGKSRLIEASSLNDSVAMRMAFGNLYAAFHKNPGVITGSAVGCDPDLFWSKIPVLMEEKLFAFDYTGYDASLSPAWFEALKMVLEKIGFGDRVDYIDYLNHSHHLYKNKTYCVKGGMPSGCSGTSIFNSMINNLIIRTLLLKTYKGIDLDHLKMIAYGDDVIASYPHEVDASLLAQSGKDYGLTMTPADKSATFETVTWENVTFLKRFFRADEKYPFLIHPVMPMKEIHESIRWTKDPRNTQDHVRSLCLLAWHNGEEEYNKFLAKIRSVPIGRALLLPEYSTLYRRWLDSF
Polio RdRp inh intensity – further read-out of Polio RdRp inh, marked with its call; % elongation; measured here: total intensity read-out; formula for this scale not given here;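 total fluorescence in place of polarization; lower means less elongation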
An asterisk follows results filed as active.

Every second line gives: Polio RdRp inh, Polio RdRp inh intensity
Cc1cc2c(cc1S(=O)(=O)NCc1ccc(F)cc1)n(C)c(=O)c(=O)n2C
    101, 107
Cc1cc2oc(C(=O)Nc3sc4c(c3C(=O)NCC3CCCO3)CCCC4)cc(=O)c2cc1C (stereo not given)
    104, 109
CCc1ccc(NC(=O)Cn2nnc(-c3ccccc3N)n2)cc1
    111, 109
Cc1ccccc1C(=O)Oc1cc(-c2ccc3c(c2)OCO3)cc(=O)c2c(C)oc(C)c12
    113, 113
O=S(=O)(c1ccc(Br)cc1)c1nc(-c2ccco2)oc1SCc1ccccc1Cl
    100, 94
CCOCCCNC(=O)c1cc2c(=O)n3ccccc3nc2s1
    102, 100
COc1cccc(CNC(=O)CCCN2C(=O)CCn3nc(-c4cccn4C)cc32)c1
    113, 117
CCOC(=O)CC(NC(=O)N1CCC(CN2CCC(C)CC2)CC1)c1ccccc1 (stereo not given)
    49*, 59*
COc1ccc2c(c1)c1c(c(=O)n(-c3cccc(C)c3)c(=O)n1CC(=O)N1CCCC1)n2C
    99, 98
Cc1cccc(OCC(=O)N(Cc2ccc(C(C)C)cc2)Cc2ccco2)c1C
    107, 110
COC(=O)c1c(NC(=O)COc2c(C)ccc(C)c2C)sc2c1CCC(C)C2 (stereo not given)
    106, 106
CC1=C(C(=O)Nc2ccccc2C)C(c2ccccn2)n2nc(SCc3ccccc3F)nc2N1 (stereo not given)
    103, 105
COc1ccc(C2=C(C(C)=O)Sc3nnc(-c4ccc(C)cc4)n3N2C(C)=O)cc1OC
    102, 107
CCOc1ccccc1N(CC(=O)Nc1ccc(OC)c(Cl)c1)S(=O)(=O)c1ccccc1
    102, 100
CCOc1ccccc1NC(=O)C1CCC(CNS(=O)(=O)c2ccc3c(c2)CCCC(=O)N3)CC1 (stereo not given)
    107, 111
CN1C(=O)c2ccccc2Sc2ccc(NC(=O)COc3ccc(F)cc3)cc21
    104, 111
O=C(c1cc(-c2ccc(F)cc2)on1)N1CCN(c2ccc(F)cc2)CC1
    106, 110
Fc1ccc(Nc2nc(SCc3ccccc3F)nc3ccccc23)cc1
    112, 110
CSc1ccc(CCNC(=O)CCc2c(C)nc3c(c(C)nn3-c3ccccc3)c2C)cc1
    105, 107
Cc1cc(NC(=O)Nc2csc3c2CCCC3)ccc1Br
    103, 103
CCOC(=O)c1c(C)[nH]c(C)c1S(=O)(=O)N1CCN(c2ccc(Cl)cc2)CC1
    106, 104
COc1ccc(/C=C/C(=O)N2CCC(c3nc4ccccc4o3)CC2)cc1OC
    105, 109
O=C(NC1CC(=O)N(c2ccc(F)cc2)C1)C1CCCCC1 (stereo not given)
    107, 112
COc1ccc(C)cc1-n1c(-c2ccc(C)cc2)cc2c1CC(C)(C)CC2=O
    113, 110
COc1ccc(S(=O)(=O)Nc2ccc3oc4c(c3c2)CCCC4)cc1
    105, 109
COc1ccc(NC(=O)c2oc3c(c2C)-c2nn(Cc4ccccc4Cl)cc2CC3)cc1OC
    114, 111
O=C(CNS(=O)(=O)c1ccc(Br)s1)N1CCN(c2ccccc2F)CC1
    107, 108
COc1ccc(NC(=O)c2cc(C3CC3)nc3c2c(C)nn3-c2ccccc2)cc1
    105, 104
Clc1ccc2nc(NCc3ccccc3)c3nncn3c2c1
    109, 110
CCOc1ccc(CCNC(=O)c2ccc3c(c2)sc2nc(-c4ccc(F)cc4)cn23)cc1OCC
    107, 107

Reformatted bar-delimited: part of the list above
Structure | Polio RdRp inh | Polio RdRp inh intensity
CCOc1ccccc1NC(=O)C1CCC(CNS(=O)(=O)c2ccc3c(c2)CCCC(=O)N3)CC1 (stereo not given) | 107 | 111
CN1C(=O)c2ccccc2Sc2ccc(NC(=O)COc3ccc(F)cc3)cc21 | 104 | 111
O=C(c1cc(-c2ccc(F)cc2)on1)N1CCN(c2ccc(F)cc2)CC1 | 106 | 110
Fc1ccc(Nc2nc(SCc3ccccc3F)nc3ccccc23)cc1 | 112 | 110
CSc1ccc(CCNC(=O)CCc2c(C)nc3c(c(C)nn3-c3ccccc3)c2C)cc1 | 105 | 107
Cc1cc(NC(=O)Nc2csc3c2CCCC3)ccc1Br | 103 | 103
CCOC(=O)c1c(C)[nH]c(C)c1S(=O)(=O)N1CCN(c2ccc(Cl)cc2)CC1 | 106 | 104
COc1ccc(/C=C/C(=O)N2CCC(c3nc4ccccc4o3)CC2)cc1OC | 105 | 109
O=C(NC1CC(=O)N(c2ccc(F)cc2)C1)C1CCCCC1 (stereo not given) | 107 | 112
COc1ccc(C)cc1-n1c(-c2ccc(C)cc2)cc2c1CC(C)(C)CC2=O | 113 | 110
COc1ccc(S(=O)(=O)Nc2ccc3oc4c(c3c2)CCCC4)cc1 | 105 | 109
COc1ccc(NC(=O)c2oc3c(c2C)-c2nn(Cc4ccccc4Cl)cc2CC3)cc1OC | 114 | 111
O=C(CNS(=O)(=O)c1ccc(Br)s1)N1CCN(c2ccccc2F)CC1 | 107 | 108
COc1ccc(NC(=O)c2cc(C3CC3)nc3c2c(C)nn3-c2ccccc2)cc1 | 105 | 104
Clc1ccc2nc(NCc3ccccc3)c3nncn3c2c1 | 109 | 110
CCOc1ccc(CCNC(=O)c2ccc3c(c2)sc2nc(-c4ccc(F)cc4)cn23)cc1OCC | 107 | 107

Remaining list, next part.
Every second line gives: Polio RdRp inh, Polio RdRp inh intensity
CCc1nn2c(=O)c(S(=O)(=O)Nc3ccc(Cl)cc3)c(C)nc2s1
    102, 110
CCN(CC)CCCNC(=O)c1ccc2c(c1)NC(=O)C(CS(=O)(=O)Cc1cccc(Br)c1)N2 (stereo not given)
    104, 99
CCOc1ccc(NC(=O)Cn2c(=O)n(CCC(=O)NCCc3ccccc3)c(=O)c3ccccc32)cc1
    104, 103
COc1ccccc1CNC(=O)CSc1ncc2c(n1)-c1ccc(Cl)cc1N(Cc1ccccc1)S2(=O)=O
    110, 109
CC(C)CNC(=O)c1c(-c2ccccc2)c(-c2ccccc2)nn(C)c1=O
    106, 107
CCOc1ccc(C2C(C(=O)Nc3ccccc3)=C(C)Nc3nc(SCc4cc(C)ccc4C)nn32)cc1 (stereo not given)
    109, 106
Cc1ccc(Cl)cc1NC(=O)Cn1c(=O)c2ccccc2n2nncc12
    105, 109
COc1cccc(CNC(=O)CSc2n[nH]c(-c3ccccc3Cl)n2)c1OC
    97, 92
CCSc1ncc(Cl)c(C(=O)N(Cc2ccccc2Cl)C2CCS(=O)(=O)C2)n1 (stereo not given)
    116, 111
CCOc1ccc(NC(=O)CSC2=Nc3ccccc3C3=NC(CC(=O)NCc4ccccc4OC)C(=O)N23)cc1 (stereo not given)
    109, 101
O=C(NCc1ccc(F)cc1)c1cc2cccc3c2n1CCS3
    109, 119
Cc1ccc(-n2ncc3c(Nc4cccc(C(F)(F)F)c4)ncnc32)cc1C
    105, 111
O=C(Nc1cccc(Cl)c1)c1cc(-c2ccc3c(c2)OCCO3)on1
    102, 92
COCc1cc(C)nc2sc3c(=O)n(-c4cc(C)ccc4C)nnc3c12
    107, 112
Cc1ccc(C(=O)Nc2nc(-c3nnn(-c4cccc(C(F)(F)F)c4)c3C)ns2)cc1
    111, 115
CCN(C(=O)c1cc(S(=O)(=O)N2CCc3ccccc32)cn1C)c1cccc(C)c1
    109, 106
Cc1cc(F)ccc1NC(=O)c1ccc2nc(Cc3ccccc3)oc2c1
    111, 100
O=C(Nc1cccc2cccnc12)c1ccccc1[N+](=O)[O-]
    106, 109
COc1cccc(-n2c(SCC(=O)Nc3cc(C)ccc3C)nc3c(oc4ccccc43)c2=O)c1
    107, 111
CC(CNC(=O)c1sc2ncccc2c1-n1cccc1)c1ccccc1 (stereo not given)
    107, 114
CCCOc1ccc(C2C(=O)N(C3CCCCCC3)CC(=O)N2CCC)cc1OC (stereo not given)
    109, 112
O=[N+]([O-])c1cc(-c2nc(-c3ccccc3)no2)ccc1N1CCOCC1
    112, 116
COc1ccc2c(c1)c1c(c(=O)n(CCc3ccccc3)c(=O)n1Cc1ccc(F)cc1)n2C
    104, 100
O=C(NCc1ccc(F)cc1)c1ccc2c(c1)N(Cc1ccc(F)cc1Cl)C(=O)CS2
    107, 109
CSc1ccc(CNC(=O)C2CCCN(S(=O)(=O)N(C)c3ccc(F)cc3)C2)cc1 (stereo not given)
    111, 110
CCOC(=O)C1=C(CN2CCN(C)CC2)NC(=O)NC1c1ccc(F)cc1 (stereo not given)
    113, 115
Cn1cc(C(=O)NCc2ccccc2)c(=O)c2cc(S(=O)(=O)N3CCCCCC3)ccc21
    100, 99
CCOC(=O)c1ccc(NC(=O)CCc2c(C)nc3cc(-c4ccc(OC)cc4OC)nn3c2C)cc1
    114, 112
CN(C)c1ccc(NC(=O)Cn2c(SCc3ccccc3F)nc3cccnc32)cc1
    19*, 47*
Cc1nn(CCC(=O)Nc2cccc(C#N)c2)c(C)c1S(=O)(=O)N1CCC(C)CC1
    104, 106

By substructure, the entries above with a nitro group on carbon (2)
Every second line gives: Polio RdRp inh, Polio RdRp inh intensity
O=C(Nc1cccc2cccnc12)c1ccccc1[N+](=O)[O-]
    106, 109
O=[N+]([O-])c1cc(-c2nc(-c3ccccc3)no2)ccc1N1CCOCC1
    112, 116

Remaining list, next part:
Every second line gives: Polio RdRp inh, Polio RdRp inh intensity
CC(=O)c1cc2c(cc1N/C(=N/S(=O)(=O)c1ccc(C)cc1)c1ccc(Cl)cc1)OCO2
    101, 107
CCCSc1nc2ccccc2c(=O)n1-c1ccccc1OC
    103, 104
CCN(CC)C(=O)c1sc(NC(=O)c2nc3ncccn3n2)c(C(=O)OC)c1C
    100, 104
CC(C)(C)c1ccc(C2=NC(C)(C)N(CC(=O)Nc3ccc(F)c(F)c3)C2=O)cc1
    111, 115
COc1ccc(NC(=O)CSc2nc3c([nH]c4ccccc43)c(=O)n2C)cc1
    109, 111
CCOc1ccccc1NC(=O)CN(C)S(=O)(=O)c1ccc2nc(C)sc2c1
    108, 109
Cc1nc2nc(SCC(=O)NCc3ccccc3)nn2c(C)c1Cc1ccccc1
    118, 110
CCN(CC)C(=O)C1CCN(c2cc(C)nc3c(-c4ccc(OC)c(OC)c4)c(C)nn23)CC1
    106, 106
CCCN(C(=O)c1ccc2c(=O)n3c(nc2c1)CCCCC3)c1cccc(Cl)c1
    102, 105
COc1ccc(Br)cc1CNC(=O)CCCn1c(=O)c2cccn2c2cccnc21
    108, 104
Cc1ccccc1CN1C(=O)c2ccccc2Sc2ccc(C(=O)NC3CCCC3)cc21
    111, 115
COc1ccc(C2=NN(CC(=O)NCc3ccccc3Cl)C(=O)CC2)cc1
    100, 101
CCN1C(=O)C2(c3ccccc31)c1c(oc3ccc(F)cc3c1=O)C(=O)N2CCCOC (stereo not given)
    109, 108
Cc1ccc2nc(-c3ccc(Cl)s3)c(Nc3ccc4c(c3)OCCO4)n2c1
    109, 112
CCOC(=O)c1cc(OC(=O)c2ccc(C)cc2)n(-c2ccccc2)n1
    108, 103
O=C(CN(c1cccc(Br)c1)S(=O)(=O)c1ccccc1)N1CCc2ccccc2C1
    101, 100
CCOC(=O)c1cnc2cc(C(F)(F)F)ccc2c1Nc1cc(C)ccc1OC
    107, 104
COCc1nc2ccccc2n1Cc1cccc(C)c1
    106, 104
CC1CCN(c2ccc(-c3cccc(NS(=O)(=O)c4ccc(F)cc4F)c3)nn2)CC1
    104, 99
CCOc1ccccc1N(C)C(=O)c1cc2c(s1)-c1ccccc1OC2
    100, 109
CCOc1ccccc1CNC(=O)CCn1ccc2cc(S(=O)(=O)N3CCCCC3)ccc21
    111, 96
COc1ccccc1NC(=O)CSc1ncc2c(n1)-c1ccccc1N(Cc1ccccc1C)S2(=O)=O
    113, 118
COc1ccc(C(CNC(=O)Cc2ccc(Cl)cc2)N2CCOCC2)cc1 (stereo not given)
    108, 105
COc1ccc(NC(c2nnc(-c3ccccc3)o2)c2ccccc2F)cc1Cl (stereo not given)
    109, 113
COc1ccc(NC(=O)c2c(C)oc3ccc(O)c(CN4CCCCCC4)c23)cc1
    103, 94
O=C(Nc1ccc(C(=O)OCc2cc(=O)n3ccsc3n2)cc1)c1cccc(F)c1
    109, 112
O=C(/C=C/c1ccc(Cl)cc1)N1CCC(c2nc3ccccc3o2)CC1
    112, 109
Cc1ccc(C)c(NC(=O)Cn2cc(S(=O)(=O)NC(C)C)c(S(=O)(=O)NC(C)C)c2)c1
    114, 114

Some of the compounds tested; the hit share may differ from the screen's.
